Bioassay records: PubChem BioAssay, National Center for Advancing Translational Sciences (NCATS)
Rango dissoc inh: inhibitors of RanGTP-induced Rango-importin beta complex dissociation; O95149+P62826; AID 540253; Potency, µM (highest dose often 46.1 µM), inactives show at the top dose activity change, negative = inhibition; Biochemical FRET Rango-importin beta, RanGTP-induced dissociation; 340,000 compounds, 0.071% hits; active means falling FRET ratio curve, often poorly fitted, with flat reads before Ran was added; inconclusive means other falling curves, or compound fluorescence or quenching; inactive means flat or rising ratio curve;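 also: potency is read from the fitted curve at half-maximal effect; % of control where 0% means no effect; nearly all actives have a fitted effect of over 45% in size; -100% = wells without RanGTP and RCC1; the record marks most hits as doubtful in a second field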
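Two FRET readings bracket the reaction: one 5 min after compound meets Rango–importin beta, another 45 min after RanGTP-RCC1 (0.6 uM Ran, 0.2 uM RCC1, 2 mM GTP) is added. Only the second defines inhibition.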
GLA inh pH 4.5: alpha-galactosidase A (human) inhibition, pH 4.5 | 230,000 tested, under 10 active | activity change, negative = inhibition, % at 105 µM | P06280 | AID 1467 | purified enzyme, 4-MU-alpha-Gal fluorescence, pH 4.5; inconclusive = small, poorly fitted or top-dose-only inhibition, or a rising curve; inactive = flat fitted curve, though single readings scatter; no compound was filed as active;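 also: 0% = full activity with enzyme and -100% = basal without enzyme; dose as in the result columns while the protocol names 77 µM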
miR-21 reporter: raises the signal of a miR-21 reporter | 340,000 tested, under 10 active | Potency, µM (series often up to 38.3 µM), without a hit: top-dose reporter change, positive = more light | HeLa miR-21 FLuc reporter, luciferase, 48 h; active = well fitted rising curve with a large enough effect; inconclusive = small, poorly fitted or top-dose-only effect; inactive = no such curve, though single readings can be large or run the other way;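 also: % of control where 0% means no effect; miR-21 action dims this reporter so a rising signal means less miR-21 action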
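Luminescence from a firefly luciferase reporter carrying a miR-21 binding site downstream, stably expressed under a CMV promoter in HeLa cells that make miR-21 endogenously, reports miRNA modulation after 48 h compound exposure up to approximately 40uM final.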
Rango-impB inh: prevents formation of the Rango-importin beta complex; Rango CFP/YFP FRET sensor + importin beta, 45 min; Q14974; Potency, µM (doses to about 92.2 µM), inactives show top-dose inhibition of complex formation; 340,000 compounds, 0.031% hits; active = rising FRET ratio curve, often small or poorly fitted; inconclusive = mostly compound fluorescence or quenching in the first reads; inactive = flat curves in all reads;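 also: potency is read from the fitted curve at half-maximal effect; 0% = DMSO wells and 100% = buffer wells lacking importin beta; nearly all actives have a fitted effect of over 15% in size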
Target sequence (Q14974 whole entry, looked up): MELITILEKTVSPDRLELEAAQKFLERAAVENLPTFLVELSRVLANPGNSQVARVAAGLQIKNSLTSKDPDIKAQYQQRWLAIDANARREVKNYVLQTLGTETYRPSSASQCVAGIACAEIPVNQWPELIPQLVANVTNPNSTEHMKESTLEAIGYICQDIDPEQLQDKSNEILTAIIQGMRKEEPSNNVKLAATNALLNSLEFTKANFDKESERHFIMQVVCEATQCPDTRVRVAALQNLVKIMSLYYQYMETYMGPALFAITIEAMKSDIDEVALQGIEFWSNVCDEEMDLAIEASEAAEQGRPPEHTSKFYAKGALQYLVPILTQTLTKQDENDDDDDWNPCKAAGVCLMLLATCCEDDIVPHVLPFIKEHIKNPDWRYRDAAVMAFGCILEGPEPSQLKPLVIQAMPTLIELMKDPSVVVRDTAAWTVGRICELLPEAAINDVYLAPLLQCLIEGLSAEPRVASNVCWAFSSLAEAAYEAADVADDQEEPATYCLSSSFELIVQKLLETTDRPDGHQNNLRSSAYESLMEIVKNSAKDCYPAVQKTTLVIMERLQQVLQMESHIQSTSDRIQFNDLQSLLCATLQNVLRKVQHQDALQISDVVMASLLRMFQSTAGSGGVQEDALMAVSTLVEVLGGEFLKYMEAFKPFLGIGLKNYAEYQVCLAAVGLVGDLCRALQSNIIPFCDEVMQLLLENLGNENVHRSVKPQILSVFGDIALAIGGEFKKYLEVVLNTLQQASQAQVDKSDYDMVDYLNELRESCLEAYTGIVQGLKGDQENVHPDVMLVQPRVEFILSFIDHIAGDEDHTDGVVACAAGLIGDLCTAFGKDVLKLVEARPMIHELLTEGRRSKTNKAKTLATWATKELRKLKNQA
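Inhibition scored from the CFP 486 nm/YFP 530 nm FRET ratio 45 min after adding 0.125 microM importin beta to 50 nM Rango biosensor preincubated 5 min with compound (room temperature, PBS with DTT, Tween-20, BSA). No-importin wells as positive control.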
Starred values were filed as active, the others as inactive. An excerpt; rates above refer to the full screens.

For O=C(Nc1ccc(Cl)cc1Cl)c1ccc(-c2ccccc2)cc1 the results were Rango dissoc inh 19%, GLA inh pH 4.5 -5, miR-21 reporter -10% and Rango-impB inh 1.1%.
CCOC(=O)c1ccc(NCn2c(=O)oc3ccccc32)cc1 was read as Rango dissoc inh 1%, GLA inh pH 4.5 4, miR-21 reporter -17% and Rango-impB inh 3.4%.
`O=C(Nc1ccccc1C(=O)NCc1ccccc1)C1=CSCCO1` gave Rango dissoc inh -28%, miR-21 reporter 1% and Rango-impB inh inconclusive.
`COc1cc(/C=N/Nc2ccc([N+](=O)[O-])cc2S(=O)(=O)N2CCOCC2)cc(OC)c1OC` gave Rango dissoc inh -21%, GLA inh pH 4.5 -8, miR-21 reporter -5% and Rango-impB inh inconclusive.
C=CCn1c(C)cc(C(=O)COc2ccc(S(=O)(=O)N3CCCC3)cc2[N+](=O)[O-])c1C was read as Rango dissoc inh 5%, GLA inh pH 4.5 0, miR-21 reporter -21% and Rango-impB inh 3.1%.
`Cc1ccc(NS(=O)(=O)c2ccc3[nH]c(=O)c(=O)[nH]c3c2)cc1Cl` gave Rango dissoc inh -3%, GLA inh pH 4.5 -13, miR-21 reporter -3% and Rango-impB inh 0.1%.
Cn1c(SCc2ccccc2F)nc2cccnc21 was read as Rango dissoc inh 17%, GLA inh pH 4.5 3, miR-21 reporter -57% and Rango-impB inh -3.6%.
For COCc1[nH]nc2c1C(c1ccnc3ccccc13)C(C#N)=C(N)O2 (stereo not given) the results were Rango dissoc inh 16%, GLA inh pH 4.5 -9, miR-21 reporter 0% and Rango-impB inh 9.9%.
`Cc1ccc(NC(=O)CSc2ncn[nH]2)cc1S(=O)(=O)N1CCOCC1` gave Rango dissoc inh 4%, GLA inh pH 4.5 -13, miR-21 reporter -3% and Rango-impB inh -3.8%.
For COc1ccccc1NC(=O)c1cc2c(s1)-c1ccccc1S(=O)(=O)C2 the results were Rango dissoc inh -20%, GLA inh pH 4.5 1, miR-21 reporter 1% and Rango-impB inh 0.0%.
`Cc1ccc(-c2nnc(CCC(=O)N(C)Cc3nccs3)o2)s1` gave Rango dissoc inh 1%, GLA inh pH 4.5 -8, miR-21 reporter 0% and Rango-impB inh -0.7%.
Screening O=C(CN1CCN(S(=O)(=O)c2ccc(Cl)cc2)CC1)Nc1ccc(F)cc1F returned Rango dissoc inh -3%, GLA inh pH 4.5 -9, miR-21 reporter -31% and Rango-impB inh -1.2%.
Screening O=C1c2ccccc2C(=O)N1n1c(=O)[nH]c2ccccc2c1=O returned Rango dissoc inh -10%, GLA inh pH 4.5 8, miR-21 reporter 1% and Rango-impB inh 0.0%.
For CCN(c1ccccc1)S(=O)(=O)c1ccc(C(=O)NCC(c2ccccc2OC)N2CCCC2)cc1 (stereo not given) the results were Rango dissoc inh -11% and Rango-impB inh 1.1%.
CC(C)(C)OC(=O)C[C@H]1C/C=C\C[C@H](CC(=O)N[C@H](CO)Cc2ccccc2)C(=O)N2CCC[C@H]2COC1=O was read as Rango dissoc inh 3% and Rango-impB inh 0.7%.
`CCCCN1CC(COc2ccccc2)Oc2cccc(F)c2S1(=O)=O` (stereo not given) gave Rango dissoc inh -15% and Rango-impB inh 2.9%.
Nc1cc(=O)[nH]c(=S)n1-c1cccc(C(F)(F)F)c1 was read as Rango dissoc inh -5%, GLA inh pH 4.5 6, miR-21 reporter -2% and Rango-impB inh 1.3%.
Screening Cc1cccc(-c2ocnc2C(=O)Nc2ccccc2NC(=O)c2ccccn2)c1 returned Rango dissoc inh 26%, miR-21 reporter 4% and Rango-impB inh 3.6%.
Screening CCOC(=O)C1CCN(C(=O)COc2ccc(N(C)S(=O)(=O)c3ccc(C)cc3)cc2)CC1 returned Rango dissoc inh 3%, GLA inh pH 4.5 -14, miR-21 reporter -2% and Rango-impB inh 0.2%.
`COc1ccc(N(C(=O)Cc2cccs2)C(C(=O)NC2CCCCC2)c2cccn2C)cc1` (stereo not given) gave Rango dissoc inh 11%, GLA inh pH 4.5 -3, miR-21 reporter -4% and Rango-impB inh 0.2%.

Fetched by compound from above, three records:
Screening O=C(CN1CCN(S(=O)(=O)c2ccc(Cl)cc2)CC1)Nc1ccc(F)cc1F returned Rango dissoc inh -3%, GLA inh pH 4.5 -9, miR-21 reporter -31% and Rango-impB inh -1.2%.
For O=C(Nc1ccc(Cl)cc1Cl)c1ccc(-c2ccccc2)cc1 the results were Rango dissoc inh 19%, GLA inh pH 4.5 -5, miR-21 reporter -10% and Rango-impB inh 1.1%.
For CCN(c1ccccc1)S(=O)(=O)c1ccc(C(=O)NCC(c2ccccc2OC)N2CCCC2)cc1 (stereo not given) the results were Rango dissoc inh -11% and Rango-impB inh 1.1%.

(list continues)
O=C(O)c1cccc2c1C(=O)c1ccc(-c3ccc(F)cc3OCc3ccccc3)cc1S2(=O)=O was read as Rango dissoc inh -25% and Rango-impB inh 0.5%.
Screening O=C(CSc1nnc(NC(=O)c2ccccc2[N+](=O)[O-])s1)NC1CCCC1 returned Rango dissoc inh 1% and Rango-impB inh -3.0%.
`Cc1ccc(CNC(=O)C2CCCN2C(=O)Nc2ccccc2)cc1` (stereo not given) gave Rango dissoc inh 17%, miR-21 reporter 0% and Rango-impB inh -4.3%.
O=c1oc(C2(O)CCCCC2)cc2ccc(-c3ccc4[nH]ccc4c3)cc12 was read as Rango dissoc inh -8% and Rango-impB inh -5.9%.
For CC(=O)c1cc2c(cc1NC(=O)Cc1c(C)noc1C)OCO2 the results were Rango dissoc inh 20% and Rango-impB inh -2.1%.
For CC(C)c1nc2sc3c(=O)[nH]c(=S)[nH]c3c2c2c1CCC2 the results were GLA inh pH 4.5 1 and miR-21 reporter -19%.
CC1O[C@@H](OC2C(COC3OC(CO)C(O)[C@H](O)C3O)OC(OC3CC[C@]4(C)C(CC[C@@]5(C)[C@@H]4CC=C4[C@@H]6CC(C)(C)CC[C@]6(CO)C(O)C[C@]45C)C3(C)C)C(O)C2O)C(O)C(O)C1O (stereo not given in full) was read as Rango dissoc inh 26% and Rango-impB inh 7.6%.
`CCN1C(=O)[C@H]2[C@@H](c3ccc(-c4cccc(Cl)c4)cc3)N3CCCC[C@@]3(C(=O)OC)[C@H]2C1=O` gave Rango dissoc inh -1% and Rango-impB inh -0.4%.
Screening CCOC(=O)c1cc(C#N)c(N2CCN(c3ccccn3)CC2)nc1-c1ccccc1 returned Rango dissoc inh 16%, GLA inh pH 4.5 inconclusive, miR-21 reporter -8% and Rango-impB inh -0.2%.
Screening O=C(c1ccccc1)N(Cc1ccc2c(c1)OCO2)Cc1nc2ccccc2c(=O)[nH]1 returned Rango dissoc inh -10%, GLA inh pH 4.5 4, miR-21 reporter -2% and Rango-impB inh 4.5%.
COc1ccccc1Oc1nc2c(c(=O)n(Cc3ccccc3F)c(=O)n2C)n1C was read as Rango dissoc inh 1%, GLA inh pH 4.5 -11, miR-21 reporter 1% and Rango-impB inh -0.3%.
O=C(NNC(=O)c1cccc2ccccc12)c1cccc(Br)c1 was read as Rango dissoc inh -3% and Rango-impB inh -1.0%.
Screening COc1cccc(/C(C)=N/NC(=O)c2ccc(N(C)C)cc2)c1 returned Rango dissoc inh -1%, GLA inh pH 4.5 12, miR-21 reporter -57% and Rango-impB inh 2.9%.
Screening O=[N+]([O-])c1ccccc1-c1nc(-c2ccc(Br)o2)no1 returned Rango dissoc inh 0%, GLA inh pH 4.5 -7, miR-21 reporter -61% and Rango-impB inh -0.7%.
Screening CC(CCc1ccccc1)NC(=O)c1ccc(NC(=O)c2ccc(Cl)cc2Cl)cc1 (stereo not given) returned Rango dissoc inh -9%, GLA inh pH 4.5 8, miR-21 reporter 0% and Rango-impB inh -0.2%.
For CC(C)(C)c1csc(NC(=O)c2ccc3nccnc3c2)n1 the results were Rango dissoc inh -15%, GLA inh pH 4.5 -1, miR-21 reporter -33% and Rango-impB inh -2.6%.
Screening Cc1ccc(OCCNC(=O)c2cccc(S(=O)(=O)NCc3ccccc3)c2)cc1 returned Rango dissoc inh 7% and Rango-impB inh -2.2%.
For CCC(C)(C)n1nnnc1C(c1ccc(OC)c(OC)c1)N1CCN(C(=O)c2ccco2)CC1 (stereo not given) the results were Rango dissoc inh -9%, miR-21 reporter -3% and Rango-impB inh -2.4%.
For CCOc1ccc(C2N(c3ccc(F)cc3)C(=O)C3CCCN32)cc1OC (stereo not given) the results were Rango dissoc inh 2%, GLA inh pH 4.5 -1, miR-21 reporter -2% and Rango-impB inh -1.4%.
`COc1ccc(C(C)(C)C)cc1NC(=O)COC(=O)c1ncc(Cl)c(Cl)c1Cl` gave Rango dissoc inh 10%, GLA inh pH 4.5 -6, miR-21 reporter -4% and Rango-impB inh -5.7%.
`CCC(C)(C)n1nnnc1C(c1ccncc1)N1CCN(c2cccc(OC)c2)CC1` (stereo not given) gave Rango dissoc inh 2%, GLA inh pH 4.5 7, miR-21 reporter 1% and Rango-impB inh 3.9%.
Screening COc1ccccc1N(CC(=O)NCC1CCCO1)C(=O)CNS(=O)(=O)c1ccc(C)cc1 (stereo not given) returned Rango dissoc inh 6%, GLA inh pH 4.5 7, miR-21 reporter -1% and Rango-impB inh 4.1%.
Cc1ccc(C(=O)N2N=C(c3cccc(NS(C)(=O)=O)c3)CC2c2cccs2)cc1 (stereo not given) was read as Rango dissoc inh 8%, miR-21 reporter 3% and Rango-impB inh -1.4%.
`Cc1ccc2nc(SCC(=O)NCc3cccs3)c(C#N)cc2c1` gave Rango dissoc inh -2%, GLA inh pH 4.5 0, miR-21 reporter -6% and Rango-impB inh -3.2%.
Screening Cc1c(C(=O)NC2CCCCC2)oc2ccc(F)cc12 returned Rango dissoc inh 1%, miR-21 reporter -64% and Rango-impB inh 0.8%.
`O=C(c1ccc(N2CCCCCC2)c([N+](=O)[O-])c1)N1CCc2ccccc21` gave GLA inh pH 4.5 2 and miR-21 reporter -15%.
For COc1ccc(NC(=O)CNC(=O)c2ccco2)cc1S(=O)(=O)Nc1cc(C)ccc1Br the results were Rango dissoc inh -9% and Rango-impB inh -2.5%.
`COc1ccc(C(=O)Nc2n[nH]c(-c3ccncc3)n2)cc1` gave Rango dissoc inh 2%, GLA inh pH 4.5 3, miR-21 reporter -7% and Rango-impB inh 2.4%.
Screening CCCCCCC(=O)NN1CCN(C)CC1 returned Rango dissoc inh 0%, GLA inh pH 4.5 3, miR-21 reporter -2% and Rango-impB inh 0.3%.
For COc1ccc2c(c1)/C(=N/N1C(=O)c3ccccc3C1=O)C(=O)N2 the results were GLA inh pH 4.5 -3 and miR-21 reporter 1%.
For C=CCSc1nnc(CSc2nc3sc4c(c3c(=O)[nH]2)CCCC4)n1-c1ccccc1 the results were Rango dissoc inh 10%, GLA inh pH 4.5 -2, miR-21 reporter -24% and Rango-impB inh 0.7%.
`CCOc1cccc(-c2c(C(=O)N/N=C/c3cccs3)nnn2-c2nonc2N)c1` gave Rango dissoc inh -14%, miR-21 reporter 2% and Rango-impB inh 1.6%.
Cc1ccc(C(=O)NC(=S)Nc2cccnc2Cl)cc1 was read as Rango dissoc inh 1%, miR-21 reporter -33% and Rango-impB inh 3.4%.
Screening COC(=O)c1ccc(NS(=O)(=O)c2c(C)[nH]c(C)c2C(=O)N2CCCC2)cc1 returned Rango dissoc inh -8%, miR-21 reporter -10% and Rango-impB inh 0.1%.
Cn1c(N2CCCCC2)nc2c1c(=O)[nH]c(=O)n2C was read as Rango dissoc inh inconclusive, GLA inh pH 4.5 -3, miR-21 reporter -18% and Rango-impB inh 0.7%.
COc1ccc(CN2CCN(C(=O)CC(C)C)CC2)cc1 was read as Rango dissoc inh 1%, miR-21 reporter 2% and Rango-impB inh 0.0%.
Cc1csc2ncnc(N3CCN(C(=S)Nc4ccc(F)cc4F)CC3)c12 was read as Rango dissoc inh -30%, GLA inh pH 4.5 2, miR-21 reporter 13% and Rango-impB inh 0.0%.
`O=C(c1ccccc1)c1ccc(C(=O)N2CCCC(C(F)(F)F)C2)cc1` (stereo not given) gave Rango dissoc inh 13% and Rango-impB inh -2.7%.
CCCc1nc2ccccc2c(=O)n1/N=C/c1ccccc1O was read as Rango dissoc inh inconclusive, GLA inh pH 4.5 -1, miR-21 reporter 0% and Rango-impB inh inconclusive.
For NC(=O)C(=O)N/N=C/c1c2ccccc2cc2ccccc12 the results were Rango dissoc inh 15µM*, miR-21 reporter -3% and Rango-impB inh 2.1%.
